# Sa growth inh = blocks Staphylococcus aureus growth; S. aureus RN4220 growth, OD600, 20 h, 42 °C; stronger effect = lower value; relative growth, % (concentration not given with the values); actives 0.53% (n = 170,000); AID 720641;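 active = growth at 42 °C up to 50% and 20 or more points under that at 30 °C, or under 10% at both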;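 note: 300 nL library stock went into each well; scaled to the means of positive and negative controls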
# HCMV NEC inh = inhibitors of HCMV UL50-UL53 nuclear egress complex interaction. HTRF UL50-UL53 interaction, normalized percent inhibition. inhibition, % (concentration not given with the values). actives 0.15% (n = 190,000). AID 1918969;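 active = both replicates at 50% or more, plus weaker picks with an unusually low signal ratio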;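 note: stock transfer was 100 nL into about 20 µL; 0% = negative control wells and 100% = wells with untagged competitor protein; inactives centre near -12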
# GIV-Gai inh = blocks GIV peptide binding to rat Galpha-i3; actives 0.42% (n = 210,000); P08753; AID 1224905; Galpha-i3/FITC-GIV peptide fluorescence polarization, 90 min; stronger effect = lower value; scaled: aluminum fluoride 0%, vehicle 100%; percent of control (FP), % (test concentration not listed);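 active = replicate mean at 85% of control or lower, very high polarization wells dropped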;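 note: wells of about 15 µL received 100 nL stock; the first replicate is given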
# Target sequence (P08753 whole entry, looked up): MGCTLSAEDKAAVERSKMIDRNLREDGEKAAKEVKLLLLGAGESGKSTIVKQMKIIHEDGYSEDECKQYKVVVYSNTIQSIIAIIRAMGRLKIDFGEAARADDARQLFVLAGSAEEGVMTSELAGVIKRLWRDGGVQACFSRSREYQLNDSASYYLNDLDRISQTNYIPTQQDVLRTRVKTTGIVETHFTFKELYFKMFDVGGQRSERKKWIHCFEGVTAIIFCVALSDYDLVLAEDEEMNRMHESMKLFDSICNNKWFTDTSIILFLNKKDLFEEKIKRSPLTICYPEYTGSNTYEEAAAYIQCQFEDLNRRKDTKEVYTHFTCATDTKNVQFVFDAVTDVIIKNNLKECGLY
# Sa growth inh second temp = also measured in Sa growth inh; calls as there; relative growth, %; measured here: growth at 30 °C;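 optical density after 20 h as mean of two plates; 100% = untreated growth and lower means inhibition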
# Starred values were filed as active, the others as inactive; nt = no result given. Not a hit list, and some 0.85% of all compounds hit somewhere here.
SMILES,Sa growth inh,Sa growth inh second temp,HCMV NEC inh,GIV-Gai inh
O=C(Cc1ccc(-c2ccccc2)cc1)NCCS(=O)(=O)N1CCN(c2ccccc2)CC1,110,100,nt,110
CCOc1nnc(NS(=O)(=O)c2ccc(N=Cc3ccccc3O)cc2)s1,7.8*,8.7*,-3,nt
Cc1ccc2oc3c(c(=O)c2c1)C1(C(=O)N(C)c2ccccc21)N(CC1CCCO1)C3=O (stereo not given),nt,nt,-49,103
O=C(NCC1CCN(Cc2cccc(Cl)c2)CC1)c1cc2ccc3cccnc3c2[nH]1,89,92,nt,99
Cc1cccc(C)c1NC(=O)c1nc(SC(C)C)ncc1Cl,101,92,7,95
O=C(O)CSc1cccc[n+]1[O-],nt,nt,-13,101
COc1ccccc1Nc1nc(C)c([N+](=O)[O-])c(Nc2ccccc2OC)n1,nt,nt,-6,104
Cc1ccc(OCc2nc(-c3ccc(C(=O)N4CCN(c5ccccc5F)CC4)cc3)oc2C)cc1,127,86,nt,105
Cc1c2c(c(C)n1C)C(C(=O)NC1CCCCC1)N(Cc1ccccc1)C2=O (stereo not given),108,84,-18,102
Cc1ccc(C2CC(c3cccc(NS(C)(=O)=O)c3)=NN2C(=O)CCC(=O)O)cc1 (stereo not given),nt,nt,-55,104
O=[N+]([O-])c1cc(-c2nc(-c3ccccc3)no2)ccc1NCc1cccnc1,111,86,-19,98
CCOC(=O)c1sc(N)c(C#N)c1COC(=O)C1CC(=O)N(c2ccccc2OC)C1 (stereo not given),89,89,-30,nt
Cc1ccc(C)c(-n2c(SCc3ccc(C#N)cc3)nnc2-c2cc3sccc3n2C)c1,104,87,nt,100
COc1cc(OC)c2nc(C)c3c(c2c1)SCC3,93,79,-60,104
C[N+]1(C)CC(=O)OC(CO)C1 (stereo not given),91,88,-16,nt

# Profiles, quoted from the list:
# COc1ccccc1Nc1nc(C)c([N+](=O)[O-])c(Nc2ccccc2OC)n1 is listed as Sa growth inh = nt; Sa growth inh second temp = nt; HCMV NEC inh = -6; GIV-Gai inh = 104
# CCOC(=O)c1sc(N)c(C#N)c1COC(=O)C1CC(=O)N(c2ccccc2OC)C1 (stereo not given) is listed as Sa growth inh = 89; Sa growth inh second temp = 89; HCMV NEC inh = -30; GIV-Gai inh = nt

# Continuation:
SMILES,Sa growth inh,Sa growth inh second temp,HCMV NEC inh,GIV-Gai inh
CC1=Nc2ccccc2N=C(N)C1c1ccc(Cl)cc1 (stereo not given),101,72,nt,97
CCS(=O)(=O)n1nc(-c2ccco2)nc1SC,97,87,nt,96
CNS(=O)(=O)c1cc(Cl)ccc1Sc1ccccc1C(=O)O,104,87,-11,103
CC1(C)Cc2nc3c(cc2CO1)c(=O)n(Cc1ccccc1)c(=O)n3CC(=O)N1CCCCC1,nt,nt,-8,99
COc1ccc(-n2ncc(C(=O)NCc3sccc3C)c2C)cc1,102,82,-23,102
N#CCc1nc2ccccc2[nH]1,92,61,-29,nt
COc1cc(OC)c(NC(=O)N2CCc3cc(OC)c(OC)cc3C2CC(=O)O)cc1Cl (stereo not given),94,91,nt,102
C=CCn1c(SCC(=O)Nc2ccc(Cl)cc2)nnc1-c1cccs1,nt,nt,-10,104
Cc1[nH]c2ccccc2c1C(=O)CSc1ccc(Cl)cc1,116,94,nt,94
O=C(Nc1nc(-c2ccc3c(c2)OCCO3)cs1)c1ccc(Br)s1,108,87,2,101
COc1cccc(-n2c(SCC(=O)N3CCC(C)CC3)nc3c([nH]c4ccccc43)c2=O)c1,116,83,-3,105
O=C(COc1ncnc2ccccc12)Nc1ccc(N2CCCCC2)cc1,80,104,-34,nt
Cc1ccc2[nH]cc(NC(=O)NCc3ccco3)c(=O)c2c1,122,82,-2,104
C=CCNc1nc(N)sc1C#N,85,66,-9,113
COc1cc(C=C2C(=O)N(C)C(=O)N(C)C2=O)ccc1OCCBr,nt,nt,0,103
O=C(c1cc(Sc2ccc(Cl)cc2)nc2ccccc12)N1CCC2(CC1)OCCO2,164,85,nt,101
Cc1cccc(NC(=O)NCc2ccc3c(c2)cc(C)n3C)c1,104,84,-13,103
Cc1cc(C)c2oc(-c3cccc(NC(=O)c4ccc(-c5cccc([N+](=O)[O-])c5)o4)c3)nc2c1,96,90,-42,102
COCCCNc1ncnc2ccc(Br)cc12,97,85,-25,101
O=C(Cc1ccccc1)NCc1ccncc1,87,91,-15,nt
Cc1cc(C)n2ncnc2n1,75,91,-12,nt
Cc1ccc(-n2nc(C)c3c(C(=O)NCc4ccccc4)cc(C4CC4)nc32)cc1,92,84,nt,100
Cc1csc(C2=C(O)CN(C3CCS(=O)(=O)C3)C2=N)n1 (stereo not given),nt,nt,-25,101
COc1ccccc1C(=O)NCc1nnnn1-c1ccc(C)c(C)c1,103,85,nt,94
CCOc1cc2nccnc2cc1OCC,99,105,5,108
CCOc1ccccc1N(C)C(=O)c1cn(CC(C)C)c(=O)c2cc(OC)c(OC)cc12,81,81,-10,99
CCOC(=O)N1CCC(c2cc(=O)n3[nH]c(-c4ccccc4)cc3n2)CC1,80,89,nt,113
O=C1CCN(C(=O)/C=C/c2ccccc2)c2ccccc21,105,114,-14,95
COc1cccc(C(=O)c2sc(Nc3ccccc3)nc2N)c1,nt,nt,-2,121
O=C(CN1CCN(CCN=Cc2c(O)[nH]c(=O)[nH]c2=O)CC1)Nc1ccc(Br)cc1,107,101,-6,106
Cc1ccc(CN2CCSc3ccc(C(=O)N4CCN(c5cccc(C)c5C)CC4)cc32)cc1,105,91,-12,105
O=C(NCCCN1CCCC1=O)c1ccc(CNS(=O)(=O)c2ccc(F)cc2)cc1,108,91,-18,100
CC1(C)C2CC=C(/C=N/NC(N)=O)C1C2 (stereo not given),101,93,-39,nt
CC(=O)Nc1cccc(C(=O)OC(C)C(=O)N(C)c2ccccc2)c1 (stereo not given),107,90,-2,nt
CN(C)S(=O)(=O)Nc1ccc2nc(N3CCN(c4ccc(F)cc4)CC3)cc(C(=O)O)c2c1,nt,nt,-47,105
COc1cc2c(cc1OC)C(C)N(C(=O)c1nccnc1C(=O)O)CC2 (stereo not given),108,101,11,106
COC(=O)C1C2C=CC3(CN(C4CCCC4)C(=O)C13)O2 (stereo not given),105,84,-3,100
Cn1c(C(=O)NCc2ccc3c(c2)OCO3)cc2sccc21,100,85,-4,102
COc1cc(OC)c(NC(=O)N2CCc3c(sc4c3CCCC4)C2c2ccccc2)cc1Cl (stereo not given),90,85,nt,103
c1ccc(-c2nn3c(-c4ccccn4)nnc3s2)nc1,nt,nt,-8,101
CC1=C(C#N)C(C(F)(F)F)(C(F)(F)F)N=C(c2ccncc2)N1,116,81,nt,102
CCC(NC(=O)c1ccc(S(=O)(=O)N2CCOCC2)cc1)C12CC3CC(CC(C3)C1)C2 (stereo not given),118,92,-6,nt
CS(=O)c1sc(C#N)c2c1C(=O)CCC2 (stereo not given),57,21,-26,96
CC1=CC(C)C(C(=O)O)C(C(=O)O)C1 (stereo not given),86,95,6,nt
CC12CC3CC(C)(C1)CC(C(=O)NC1=NCCS1)(C3)C2,105,95,-3,104
CCCc1cc(=O)oc2cc(OCC=C(C)C)ccc12,85,89,-7,nt
COC(=O)c1ccc(CSc2nc3c([nH]c4ccccc43)c(=O)n2-c2ccc(OC)cc2)o1,92,82,nt,99
O=C(CCS(=O)(=O)c1ccc2c(c1)NC(=O)CS2)NCc1ccccc1,88,76,-21,101
CC1(C)CC(NS(=O)(=O)c2ccccc2)CC(C)(C)N1,103,76,-4,101
COCc1c(C(=O)O)oc2ccccc12,100,96,12,nt
CN(CC1COc2ccccc2O1)C(=S)NC1CCCCC1 (stereo not given),79,90,-10,nt
Cc1ccc(C(=O)N2CCCn3c2nc2ccccc23)cc1,110,82,-5,102
O=C(N/N=C/c1ccco1)c1cccc(N2CCCC2=O)c1,139,76,-62,101
COc1ccc(-c2nnc(SCC(=O)Nc3ccc(C(C)C)cc3)nc2-c2ccc(OC)c(OC)c2)cc1OC,105,88,nt,100
COc1cccc(-c2nc(CS(=O)(=O)CC(=O)Nc3cccc(C(C)=O)c3)c(C)o2)c1,107,85,-12,108
Cc1ccc(NC(=O)Cn2nc3c(Sc4ccccc4)nc4ccccc4n3c2=O)cc1,nt,nt,-17,108
COC(=O)c1ccc(Cn2nc(C(F)(F)F)cc2C)cc1,93,85,nt,102
CC(C)CNCC1OCc2ccccc2CO1,99,90,-14,93
Cc1ccc(-n2nnc3c(=O)n(CC#N)cnc32)cc1Cl,103,84,-21,107
O=C1C(C2(O)C(=O)Nc3ccccc32)CCCC1C1(O)C(=O)Nc2ccccc21 (stereo not given),nt,nt,-16,111

# Going on with the list.
SMILES,Sa growth inh,Sa growth inh second temp,HCMV NEC inh,GIV-Gai inh
CC(C)Cc1nn2c(=O)cc(COC(=O)c3ccc(NC(=O)CCc4ccccc4)cc3)nc2s1,99,93,nt,103
CCN(CC)S(=O)(=O)c1ccc(OC)c(-n2cnnn2)c1,106,84,-14,106
N#Cc1ccc(Cn2cnc3ccccc32)cc1,104,93,5,103
COc1ccc(-c2cc(C(F)F)nc(-n3nc(C)cc3C)n2)cc1,107,71,-3,103
COC(=O)C1=C(C)OC(N)=C(C#N)C1c1ccc(C(=O)OC)cc1 (stereo not given),97,91,-15,nt
O=C(CN1C(=O)C2CC=CCC2C1=O)Nc1ccc2c(c1)CCC2 (stereo not given),105,89,3,nt
COc1ccc(-c2[nH]ncc2C(=O)NCc2ccccc2OC)cc1,115,94,-18,105
C=CCNC(=O)C1CC(c2ccccc2F)=NO1 (stereo not given),114,94,nt,108
COc1cccc(CNC(=O)CN2C(=O)c3cccnc3Oc3ccc(C)cc32)c1,104,84,-16,105
CCN(CC)C(=O)c1cc(-c2ccc(Cl)cc2)on1,101,87,-19,105
c1coc(CNCC2OCCCCO2)c1,92,83,-11,102
CC1=C(c2ccc(C(C)C)cc2)S(=O)(=O)N=C1N1CCC(C(=O)NCCc2ccco2)CC1,84,82,nt,109
COc1ccc(S(=O)(=O)n2cnc(C)c2)cc1Cl,nt,nt,6,98
O=C(Nc1ccc2c(c1)OCO2)Nc1cc(NC(=O)c2ccccc2)ccc1N1CCCC1,nt,nt,-28,102
Cc1ccc(NC(=O)CCCC2=NS(=O)(=O)c3ccccc3N2)cc1F,nt,nt,-25,101

# In a second layout: results already given
compound	Sa growth inh	Sa growth inh second temp	HCMV NEC inh	GIV-Gai inh
Cc1ccc(-n2nnc3c(=O)n(CC#N)cnc32)cc1Cl	103	84	-21	107
O=C1C(C2(O)C(=O)Nc3ccccc32)CCCC1C1(O)C(=O)Nc2ccccc21 (stereo not given)	nt	nt	-16	111
CC(C)Cc1nn2c(=O)cc(COC(=O)c3ccc(NC(=O)CCc4ccccc4)cc3)nc2s1	99	93	nt	103
CCN(CC)S(=O)(=O)c1ccc(OC)c(-n2cnnn2)c1	106	84	-14	106
N#Cc1ccc(Cn2cnc3ccccc32)cc1	104	93	5	103
COc1ccc(-c2cc(C(F)F)nc(-n3nc(C)cc3C)n2)cc1	107	71	-3	103
COC(=O)C1=C(C)OC(N)=C(C#N)C1c1ccc(C(=O)OC)cc1 (stereo not given)	97	91	-15	nt
O=C(CN1C(=O)C2CC=CCC2C1=O)Nc1ccc2c(c1)CCC2 (stereo not given)	105	89	3	nt
COc1ccc(-c2[nH]ncc2C(=O)NCc2ccccc2OC)cc1	115	94	-18	105
C=CCNC(=O)C1CC(c2ccccc2F)=NO1 (stereo not given)	114	94	nt	108
COc1cccc(CNC(=O)CN2C(=O)c3cccnc3Oc3ccc(C)cc32)c1	104	84	-16	105
CCN(CC)C(=O)c1cc(-c2ccc(Cl)cc2)on1	101	87	-19	105
c1coc(CNCC2OCCCCO2)c1	92	83	-11	102
CC1=C(c2ccc(C(C)C)cc2)S(=O)(=O)N=C1N1CCC(C(=O)NCCc2ccco2)CC1	84	82	nt	109

# (listing goes on)
SMILES,Sa growth inh,Sa growth inh second temp,HCMV NEC inh,GIV-Gai inh
Cc1cc(C)n(-c2ccc(C(=O)Nc3nc4ccccc4s3)cc2)n1,89,93,10,nt
Cc1ccc(N2CC(C(=O)N3CCN(S(=O)(=O)c4ccc5c(c4)NC(=O)CO5)CC3)CC2=O)cc1C (stereo not given),nt,nt,-4,104
COC(=O)CSc1nc2ccccc2nc1SCC(=O)OC,80,93,-2,nt
CS(=O)(=O)NCc1ccc2c(c1)OCO2,117,90,-9,107
O=C(C1CCC(Cn2c(=O)[nH]c3ccsc3c2=O)CC1)N1CCCC1 (stereo not given),108,85,-11,98
CCOC(=O)C1CCN(c2nc3c(S(=O)(=O)c4ccc(C(C)C)cc4)nnn3c3ccccc23)CC1,nt,nt,-10,97
COc1cc(NC(=O)C(CC(C)C)NC(=O)C2CCCCC2)cc(OC)c1OC (stereo not given),96,84,-11,101
CCCCN(Cc1ccco1)C(=O)Cn1nc(Cc2ccncc2)c2ccccc2c1=O,92,80,5,103
Cc1nnc(NC(=O)c2nc(S(=O)(=O)Cc3ccccc3)ncc2Cl)s1,51,55,-54,97
CC1Cc2cc(S(=O)(=O)CCC(=O)NCc3ccc(Cl)cc3)ccc2N1C(=O)C1CC1 (stereo not given),99,80,nt,106
COc1ccc(S(=O)(=O)N(CC(=O)Nc2cccnc2)c2ccc(C)cc2)cc1OC,85,81,-51,106
COc1ccccc1CNC(=O)CCS(=O)(=O)c1ccc2c(c1)n(C)c(=O)c(=O)n2C,109,94,2,111
O=C(Nc1ccc(Cl)cc1F)c1cnc2sc(N3CCOCC3)nn2c1=O,102,95,-1,101
c1ccc(CSc2ncnc3c2nnn3Cc2ccccc2)cc1,142,91,nt,104
COc1nc(Cl)nc(N2CCCCC2)n1,97,86,0,nt

# Compound activity (PubChem BioAssay)
